AID504770 – growth inhibitors of E. coli YBA685 in a screen for V. cholerae RctB (chromosome II replication) inhibitors. E. coli YBA685 rctB-dependent plasmid, OD600 growth, 3 h; active compounds read low. z-score (no concentration beside the values). actives 0.27% (n = 130,000);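 active means z-score under -2 on both plates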;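 further: wells of about 30 µL received 100 nL stock; score is relative to mean and SD of the test wells; the first replicate is given; strong numbers were not always called active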
CapD inh – CapD enzyme inhibition; purified CapD enzyme, fluorescence intensity read-out; active compounds read low; some hits fall short of the stated cut; z-score (no concentration beside the values); actives 0.23% (n = 140,000);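 active means z-score under -4 in either of two replicates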;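 further: stock transfer was 100 nL into about 40 µL; score is relative to mean and spread of the plate; one replicate is shown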
The depositor's hits bear a star; . = not tested or not shown.

No.	Compound	AID504770	CapD inh
1	Cc1nc(N)sc1-c1nnc(Nc2ccccc2)s1	0.05	98
2	CC(Nc1nc2ccccc2s1)C(=O)O (configuration not stated)	0.15	.
3	CC(=O)Nc1nc(N(C)C)nc(N(C)C)n1	-0.05	.
4	C#CC(CC)(CC)NC(=O)Cc1n[nH]c(=O)c2ccccc12	1.8	.
5	CCC(C)C1NC(=O)C(CCNCS(=O)(=O)O)NC(=O)C(NC(=O)C(CCNCS(=O)(=O)O)NC(=O)C(NC(=O)C(CCNCS(=O)(=O)O)NC(=O)CCCCC(C)C)C(C)O)CCNC(=O)C(C(C)O)NC(=O)C(CCNCS(=O)(=O)O)NC(=O)C(CCNCS(=O)(=O)O)NC(=O)C(C(C)CC)NC1=O (configuration not stated)	0.15	0.025
6	N#Cc1ccc(NC(=O)CCC2CCCC2)cc1	2.7	-1.1
7	CC1(C)CC(NC(=O)C23CCC(C)(C(=O)C2)C3(C)C)CC(C)(C)N1 (configuration not stated)	0.3	0.2
8	Cc1ccc(-c2nc(CS(=O)(=O)CC(=O)N3CCc4ccccc43)c(C)o2)cc1	0.65	-0.09
9	C#CCOc1cccc(CN(C)C(C)c2ccco2)c1 (configuration not stated)	-0.55	.
10	O=S(=O)(Nn1cnnc1)c1ccccc1Cl	-0.7	0.4
11	O=C(COC(=O)C1CC(=O)N(Cc2ccco2)C1)c1ccc2ccccc2c1 (configuration not stated)	0.15	.
12	CCC(C)NC(=O)Cn1nc(-c2ccccc2)c2cc(Cl)ccc21 (configuration not stated)	-0.65	6.4
13	COc1ccc(C2N(c3ccccc3)OC(=O)N2c2ccccc2)cc1 (configuration not stated)	-0.2	-0.38
14	CCC1=Nc2cccc3cccc(c23)N1	-0.45	-0.095
15	O=S(=O)(c1ccc(Br)s1)N1CCC(O)(c2cccc(C(F)(F)F)c2)CC1	.	0.49
16	COCc1cc(C)c2c(n1)sc1c(-c3ccccc3)onc12	.	0.18
17	CCN1C(=O)/C(=C2\C=Cc3ccccc3N2CC)OC1=S	0.3	9.1
18	COc1ccc(CCNC(=O)CC#N)cc1OC	0.45	-0.42
19	O=c1[nH]c2ccsc2c(=O)n1CCO	-0.6	0.73
20	CCOC(=O)CSCCOc1ccc(/C=C2/C(=O)NC(=O)N(c3ccc(OC)cc3)C2=O)cc1OC	.	0.76
21	CCOC(=O)c1ccc(-n2c(C)ccc2C)cc1	.	-0.015
22	COc1ccc(C)cc1S(=O)(=O)N1CCN(C(c2ccc(Cl)cc2)c2ccc(Cl)cc2)CC1	.	0.58
23	O=C(CCCSc1nc(-c2ccco2)cc(C(F)(F)F)n1)NCC1CCCO1 (configuration not stated)	-0.4	.
24	Cc1ccc(C(O)(C(F)(F)F)C(F)(F)F)o1	2	0.32
25	COc1ccc(C2=NN(C(=O)CSCc3ccco3)C(c3cccc(OC)c3OC)C2)cc1 (configuration not stated)	0.05	1.5
26	COc1ccc(/C=C2/N=C(c3ccc(OC)c(Br)c3)OC2=O)c(OC)c1	.	0.79
27	CC1C/C(=C\C=C\N(C)C)C(=O)/C(=C/C=C/N(C)C)C1 (configuration not stated)	-0.3	-2.5
28	CCSC(=O)NCc1ccccc1	-0.75	-0.6
29	c1ccc(-c2nnc(CN3CCCCC3)o2)cc1	-0.8	-0.53
30	O=C(CNC(=O)c1cccnc1)NCc1cc(F)cc(C(F)(F)F)c1	.	-0.33

Entries listed so far that contain an aryl methoxy group (six):
No.	Compound	AID504770	CapD inh
13	COc1ccc(C2N(c3ccccc3)OC(=O)N2c2ccccc2)cc1 (configuration not stated)	-0.2	-0.38
18	COc1ccc(CCNC(=O)CC#N)cc1OC	0.45	-0.42
20	CCOC(=O)CSCCOc1ccc(/C=C2/C(=O)NC(=O)N(c3ccc(OC)cc3)C2=O)cc1OC	.	0.76
22	COc1ccc(C)cc1S(=O)(=O)N1CCN(C(c2ccc(Cl)cc2)c2ccc(Cl)cc2)CC1	.	0.58
25	COc1ccc(C2=NN(C(=O)CSCc3ccco3)C(c3cccc(OC)c3OC)C2)cc1 (configuration not stated)	0.05	1.5
26	COc1ccc(/C=C2/N=C(c3ccc(OC)c(Br)c3)OC2=O)c(OC)c1	.	0.79

Continuation:
No.	Compound	AID504770	CapD inh
31	Cc1ccc(C2Nc3ccc4ccccc4c3C3=C2C(=O)CC(C)(C)C3)cc1[N+](=O)[O-] (configuration not stated)	.	-0.67
32	O=C1S/C(=C/c2ccccc2)C(=O)N1CO	-1.4	.
33	O=C(CN1CCCCC1)N1N=C(c2cccs2)CC1c1ccc(O)cc1 (configuration not stated)	-0.4	.
34	Cc1nc2ccccc2c(=O)n1-c1ccc2c(c1)OC(F)(F)O2	-0.35	0.47
35	CCOC(=O)CSc1nnc2ccccn12	0.8	.
36	COc1ccc(Cl)cc1NC(=O)Cn1c(NCC(C)O)nc2ccccc21 (configuration not stated)	-0.1	.
37	COc1cc(C2C(C(=O)Nc3ccccn3)=C(C)Nc3ncnn32)ccc1OCc1ccccc1 (configuration not stated)	.	-0.35
38	CC(=O)Nc1ccc(C(=O)CSc2nnc(-c3ccoc3)c(-c3ccoc3)n2)cc1	1.1	.
39	O=c1[nH]ncc(NCCCc2ccccc2)c1Cl	-0.15	.
40	CN1C(=O)N(C)C2C1N(C)S(=O)(=O)N2C (configuration not stated)	1.7	.
41	O=C(Nc1cccnc1N1CCOCC1)c1cc2ccccc2oc1=O	0.25	.
42	CC(C)NC(=S)N=Nc1c(O)[nH]c2ccc(C(C)C)cc12	1.6	.
43	O=C(O)CSc1nc2cc(N3CCOCC3)c(F)cc2[nH]1	3.4	-2.1
44	O=C(CSC1CCCC1)N1CCCC1	0.05	0.11
45	COc1cc(/C=C2\SC(=S)N(CCC(=O)Nc3ccc(C(C)=O)cc3)C2=O)cc(OC)c1OC	.	-0.45

2 entries picked at random from those above:
No.	Compound	AID504770	CapD inh
44	O=C(CSC1CCCC1)N1CCCC1	0.05	0.11
37	COc1cc(C2C(C(=O)Nc3ccccn3)=C(C)Nc3ncnn32)ccc1OCc1ccccc1 (configuration not stated)	.	-0.35

Additional results follow:
No.	Compound	AID504770	CapD inh
46	COCc1cc(C)nc(OCC(=O)OC)c1C#N	-0.85	6.1
47	O=C(N/N=C\c1cn(-c2ccccc2)nc1-c1cccs1)c1ccncc1	.	0.9
48	N#Cc1ccc(-c2ccc(Cl)c(Cl)c2)nc1Sc1cccc(Cl)c1	.	-0.33
49	COc1cc(OC)c(/C=C2/C(=O)Nc3ccccc32)c(OC)c1	0.15	-1.4
50	CC1C(O)=C(c2nc3ccccc3[nH]2)c2nc(=O)c3ccccc3n21 (configuration not stated)	-0.3	.
51	CC(C)(CC(=O)O)CC(=O)N1CCCN(c2c(Cl)cncc2Cl)CC1	-0.45	-1.1
52	FC(F)(F)c1ccnc(NCCNc2nccc(C(F)(F)F)n2)c1	-0.2	-0.035
53	CN(C)Cc1ccc(C(=O)NN)o1	0.5	.
54	Cc1onc(-c2c(Cl)cccc2Cl)c1C(=O)NCc1c(F)cccc1Cl	.	0.17
55	O=C(O)c1cccc2c1NC(c1cccc(Br)c1)C1CC(Sc3ccccc3[N+](=O)[O-])C(Cl)C21 (configuration not stated)	.	-0.035
56	c1ccc(Nc2nc3ccccc3[nH]2)nc1	-1.8	5.6
57	Cc1ccc(N2CC(NC(=O)N3CCN(c4ccc(F)cc4)CC3)CC2=O)cc1C (configuration not stated)	0.1	.
58	CN(CC(=O)NC1CCCC1)S(=O)(=O)c1cc(Br)cnc1N	-0.95	0.18
59	O=C(CSc1nccn1-c1cccc(F)c1)N1CCN(c2ccc(O)cc2)CC1	1.4	.
60	NC1=NC(=O)/C(=C/c2cccs2)S1	2.1	-1.9
61	O=C(O)CCOc1ccc(F)cc1	.	-0.27
62	COc1ccc(Br)cc1C1N(c2ccccc2)CCN1c1ccccc1	.	0.29
63	Cc1ccc(NC(=O)Nc2c(C)nn(C)c2C)cc1	0.2	.
64	Cn1c(-c2ccc3nc(N)sc3c2)nc2cc(N)ccc21	-0.8	74
65	CC(Sc1nc2c(N)ncnc2n1CCOc1ccccc1)C(=O)O (configuration not stated)	-2.2	1
66	Cc1ccc(S(=O)(=O)NC(=O)n2cc(-c3ccncn3)c(-c3ccncc3)n2)cc1	.	-0.43
67	CCN(Cc1ccccc1)C(=O)c1cccnc1	-0.15	0.13
68	O=C(/C=N/O)c1ccc(Cl)cc1Cl	1.2	-0.27
69	CCc1ccc(C2(O)CN(c3ccc(OC)cc3)C3=[N+]2CCCS3)cc1 (configuration not stated)	.	0.56
70	CC(=O)Nc1nc(C)c(C(C)C)s1	0.75	0.2
71	CC(=O)c1c(C)n(O)c2ccc3nonc3c12	.	-0.07
72	Cc1nn(-c2ccccc2)c2c1C(c1ccc3c(c1)OCO3)C(C#N)C(=O)N2 (configuration not stated)	0	.
73	Cc1c(NC(=O)c2ccc(S(=O)(=O)N3CCCC3)cc2)c(=O)n(-c2ccccc2)n1C	-1	0.35
74	COC(=O)c1c(-c2ccc(F)cc2)noc1N	0	0.02
75	COC(CNC(=O)c1cc(S(=O)(=O)N2CC(C)CC(C)C2)ccc1Sc1ccc(F)cc1)OC (configuration not stated)	.	-0.26

Full records from above. Order of values: AID504770 | CapD inh
`CC1(C)CC(NC(=O)C23CCC(C)(C(=O)C2)C3(C)C)CC(C)(C)N1` (configuration not stated) is listed with 0.3 | 0.2
`CC(=O)Nc1ccc(C(=O)CSc2nnc(-c3ccoc3)c(-c3ccoc3)n2)cc1` is listed with 1.1 | .
`O=C(/C=N/O)c1ccc(Cl)cc1Cl` is listed with 1.2 | -0.27

The listing continues:
No.	Compound	AID504770	CapD inh
76	Cc1cc(C)c(CC2C(=O)c3ccccc3C2=O)cc1C	1.4	-1.1
77	O=C(NCc1ccco1)c1cc(-c2ccccn2)nc2ccccc12	-0.2	0.48
78	CC1CC(C)CN(C(=O)COn2ccc3ccc(S(C)(=O)=O)cc32)C1 (configuration not stated)	.	9.9
79	CC(=O)Nc1nc(CC(=O)O)cs1	0.05	0.73
80	O=C(CSCC(=O)c1ccccc1)c1ccccc1	1.2	-2.6
81	Cc1[nH]c2ccccc2c1SCC(=O)NCc1ccco1	-0.6	-0.045
82	O=C(CSc1nc2cc(C(=O)NCc3ccco3)ccc2c(=O)n1C1CCCCC1)NCCc1ccccc1	.	-0.12
83	O=C(CSc1nc2ccccc2nc1N1CCCC1)NCCc1ccc(Cl)cc1	0.9	0.21
84	CN(C)C(=O)c1nnc(Cc2ccc(Cl)cc2)o1	-0.35	-0.95
85	Cc1ccc(OCc2nnc(SCC(=O)c3ccc([N+](=O)[O-])cc3)n2-c2ccccc2)c2c1CCC2	.	0.09
86	COc1ccc(CN(C)C(=O)C2CCCN2C(=O)c2cccs2)cc1 (configuration not stated)	-0.45	.
87	CCOC(=O)c1sc(N)c(C#N)c1COC(=O)c1ccc(S(=O)(=O)N2CCCC2)cc1	1.5	.
88	N#CCn1c(COC(=O)C2CC(=O)N(CCc3ccccc3)C2)nc2ccccc2c1=O (configuration not stated)	0.1	.
89	CCOC(=O)c1sc2nc(CC(=O)OC)nc(N3CCC(C(=O)OCC)CC3)c2c1C	.	0.47
90	O=C(Nc1ccc(Cl)cc1)OC1CCSC1 (configuration not stated)	0.85	0.88
91	COc1cc(NC(=O)c2ccc3c(=O)n4c(nc3c2)CCCCC4)cc(OC)c1OC	-0.7	-1.2
92	CCOC(=O)c1cc(-c2csc(CS(=O)(=O)c3ccccn3)n2)on1	0	0.11
93	CCOC(=O)c1c(C)n(C)c2ccc(OCC(O)CN3C(=O)c4ccccc4S3(=O)=O)cc12 (configuration not stated)	0.3	3.2
94	CCOc1ccc(-c2ncccc2O)cc1	0.45	.
95	Cc1ccc(/C(O)=C2\C(=O)C(=O)N(CCCN3CCOCC3)C2c2ccc(Cl)cc2)cc1 (configuration not stated)	.	-0.39
96	O=C(NCc1ccc(Cl)cc1)c1ccc(-n2cnnn2)cc1	-0.55	.
97	CCN=C1NC(=O)C(CC(=O)NCCc2ccccc2)S1 (configuration not stated)	-0.35	.
98	Cc1cc(C=C(C#N)C#N)c(C)n1C1CCCC1	1	.
99	Cc1ccccc1NC(=O)/C=C\C(N)=O	0.65	.
100	COc1ccc(/C=N/N2CCOCC2)cc1O	-1.4	-1.3
101	COC(=O)c1ccc(N2CCN(C)CC2)c(NC(=O)c2ccc(C#N)cc2F)c1	-0.5	0.7
102	Nn1c(Cc2ccccc2)nc2sc3c(c2c1=O)CCCC3	0.5	-0.31
103	CN(C)C(=O)Cn1nc(C(=O)O)c2ccccc2c1=O	1.1	.
104	CCC1CCCCN1C(=O)c1cc(-c2ccccc2OC)on1 (configuration not stated)	-0.2	-0.55
105	N#Cc1c(SCc2ccc(Cl)cc2)nc(N)nc1-c1cccs1	.	5.7
106	COc1ccc(C(=O)CSc2n[nH]c(=O)n2C(C)c2ccccc2)cc1 (configuration not stated)	-0.55	0.55
107	CCOC(=O)CC(=O)CSc1nc(-c2cccs2)cc(-c2ccc(F)cc2)c1C#N	.	4.2
108	Nc1nc(-c2ccc(Cl)c(Cl)c2)cs1	-0.45	0.92
109	CC1CN=C(Nc2ccc(C(C)C)cc2)S1 (configuration not stated)	-1.5	-0.71
110	Cc1cccc(C)c1NC(=O)CN(C)c1ccc(S(=O)(=O)N(C(C)C)C(C)C)cn1	1.5	.
111	COc1ccc(C2=NN(C(=O)CCCC(=O)O)C(c3ccc(OC)cc3)C2)cc1 (configuration not stated)	.	5.5
112	O=C(CSC1=NC(=O)C(c2ccccc2)C(=O)N1)Nc1nc2ccccc2s1 (configuration not stated)	-0.4	0.055
113	CC1CCCCC1NC(=O)CCCn1ncn2c(cc3occc32)c1=O (configuration not stated)	-0.45	0.64
114	Cn1/c(=N/N=c2\oc3ccccc3n2C)oc2ccccc21	-0.2	0.52
115	CC(=O)NS(=O)(=O)c1ccc(N=Cc2nc(-c3cccc4ccccc34)oc2O)cc1	.	-1.9
116	CCOC(=O)N1CCC(n2c(SCC(=O)Nc3nccs3)nc3ccsc3c2=O)CC1	-0.3	0.29
117	CCCn1c(SCCCC(=O)c2cccs2)n[nH]c1=O	0.5	.

An excerpt. The share of hits here may be higher or lower than overall.
